Screening results deposited in PubChem by National Center for Advancing Translational Sciences (NCATS).
A647 autofl – compound autofluorescence in A647 spectral region; max dye-equivalent concentration, M; AID 592; Compound fluorescence, A647 channel (570/671 nm), Tris buffer; 59,000 tested, under 10 active; active means above 1 µM dye equivalent; inconclusive means 0.1 to 1 µM; inactive means 0.1 µM or less;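 note: values scaled relative to a standard on each plate; highest value over a series up to 38 µM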
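Buffer was dispensed, compounds and Alexa 647 standards were pin-transferred, and plates sat 15 min at room temperature. Intensity at 570/671 nm was then converted to dye-equivalent concentration using the plate's A647 standard curve.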
A488 autofl – A488 region autofluorescence | 0.1% of 59,000 active | AID 591 | compound autofluorescence, A488 spectral region, dye equivalency; hits give high values | max dye equivalency, M; active = above 10 nM dye equivalent; inconclusive = 1 to 10 nM; inactive = 1 nM or less; about half of its hits are not listed in these tables;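 note: highest value over a series up to 38 µM; compound alone in buffer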
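Read-out: relative fluorescence at 480/540 nm, expressed as Alexa 488 dye-equivalent concentration from a six-point A488 standard included per plate. Conditions: 100 mM Tris, pH 8.0; 15 min incubation, room temperature.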
Resorufin fluor – compound fluoresces in the resorufin spectral region. Compound fluorescence, resorufin region 547/598 nm, buffer; hits give high values. max dye-equivalent concentration, M. 0.04% of 59,000 active. AID 588; active = above 10 nM dye equivalent; inconclusive = 1 to 10 nM; inactive = 1 nM or less; a few of its hits are not listed in these tables; note: highest value over a series up to 38 µM
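Tris 100 mM pH 8.0; compound added, 15 min RT; CCD imager read, ex 547 nm/em 598 nm; signal normalized to resorufin standard curve (six concentrations per plate) as dye-equivalent concentration.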
AID923 – qHTS Assay for Allosteric/Competitive Inhibitors of Caspase-1: Spectroscopic Profiling in AFC Spectral Region | compound fluorescence, AFC spectral region (405/520 nm); almost no hit is shown here | Potency, µM (doses to about 57.5 µM), without a hit: at the top dose fluorescence increase, actives largely listed as activators | 1.1% of 75,000 active; active = well fitted activation curve with a large enough effect; inconclusive = small, poorly fitted or top-dose-only effect;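 note: potency is the fitted concentration of half-maximal effect; 0% is about no effect; scaled to a free AFC standard on each plate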
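Titrations up to 57 uM read every 20 sec for 3 min (405/520 nm) with 50 nM caspase 1 and 5 uM Ac-WEHD-AFC, pH 7.5 HEPES buffer. Fluorescence-vs-time intercept gave baseline, scaled against on-plate AFC standard.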
TSHR ag – agonists of human thyroid stimulating hormone receptor. HEK293-CNG-TSHR cells (CNG channel as cAMP sensor), membrane potential dye, cAMP. 0.48% of 73,000 active. P16473. Potency, µM (titrated, usually from 57.1 µM), without a hit: top-dose activation, most hits filed as activators; active = well fitted activation curve of enough size with the parental cells flat; inconclusive = any curve in the parental cells; inactive = parental cells flat and receptor cells flat or falling; note: potency is the fitted concentration of half-maximal effect; % of control where 0% means no effect; weak receptor curves with flat parental cells got no call and are not listed
Target sequence (P16473 whole entry, looked up): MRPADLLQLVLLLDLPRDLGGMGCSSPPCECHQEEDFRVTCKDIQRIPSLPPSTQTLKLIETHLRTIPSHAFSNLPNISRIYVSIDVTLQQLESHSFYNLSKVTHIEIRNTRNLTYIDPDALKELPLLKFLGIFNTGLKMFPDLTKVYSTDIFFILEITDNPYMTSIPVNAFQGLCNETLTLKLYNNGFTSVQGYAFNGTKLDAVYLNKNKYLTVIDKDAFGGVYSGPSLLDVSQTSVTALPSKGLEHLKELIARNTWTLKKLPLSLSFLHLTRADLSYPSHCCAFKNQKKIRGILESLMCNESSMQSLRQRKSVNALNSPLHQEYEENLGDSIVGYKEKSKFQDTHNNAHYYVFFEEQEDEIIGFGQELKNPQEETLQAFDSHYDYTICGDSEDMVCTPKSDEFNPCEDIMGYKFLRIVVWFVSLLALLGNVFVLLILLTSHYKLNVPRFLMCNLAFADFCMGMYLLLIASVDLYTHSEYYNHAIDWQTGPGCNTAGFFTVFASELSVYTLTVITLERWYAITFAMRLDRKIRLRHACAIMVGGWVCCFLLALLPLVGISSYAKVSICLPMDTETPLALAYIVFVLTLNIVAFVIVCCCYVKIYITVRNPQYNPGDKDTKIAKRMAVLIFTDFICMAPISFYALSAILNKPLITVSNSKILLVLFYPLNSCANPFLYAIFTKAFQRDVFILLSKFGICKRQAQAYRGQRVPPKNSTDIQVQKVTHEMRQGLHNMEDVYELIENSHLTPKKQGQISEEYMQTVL
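cAMP rise detected as CNG-channel membrane depolarization by fluorescent dye (emission 590 nm), 30 min after compound, following 60 min dye loading containing 100 uM RO 20-1724 at room temperature. Cells: TSHR/CNG HEK 293, with parental CNG HEK 293 as control.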
* hit, by the source's call; i = inactive; ? = inconclusive; nt = no result given; [ ] = another dose, or the depositor's remark. Only part of the results is shown; count on the stated rates, not on these rows.

SMILES	A647 autofl	A488 autofl	Resorufin fluor	AID923	TSHR ag
O=C(NCc1ccco1)c1ccc(N2CCCC2=O)cc1	1e-09	i	i	2.4%	0%
CS(=O)(=O)N1CCC2(CCCN(C(=O)Nc3cccc(F)c3)C2)CC1	1e-09	i	i	-0.9%	3%
CCOC(=O)N1CCN(C(=O)CN(C2CCCCC2)S(C)(=O)=O)CC1	4e-08	i	i	-0.2%	1%
O=C(c1ccco1)N1CCC2(CCCN(c3cccc(-c4ccccc4)c3)C2)CC1	3.2e-09	i	i	2.2%	22%
COc1cccc(NC(=O)CSc2nnc(-c3cccc(OC(C)C)c3)n2N)c1	1e-09	i	i	-0.2%	-8%
Cc1ccc(CNC(=O)CN2C(=O)C3(OCCCO3)c3ccccc32)cc1	2.6e-08	i	i	0.0%	?
CN1CCN(c2ccccc2NS(=O)(=O)c2ccc3c(c2)CCN3C(=O)C2CCC2)CC1	1e-09	i	i	1.3%	4%[11.4 µM]
Nc1nc(CN2CCN(c3ccccc3)CC2)nc(N2CCCc3ccccc32)n1	1e-09	i	i	-0.4%	?
CCN(CC)CCCn1c(C)cc2c(c1=O)C(c1ccccc1)C(C#N)=C(N)O2 (stereo not drawn)	1.6e-08	i	i	nt	nt
CCCc1cc(C(=O)Nc2cc(Br)ccc2O)no1	nt	nt	nt	-2.1%	-10%
O=C1c2cccc3c(N4CCCCC4)ccc(c23)C(=O)N1c1ccccn1	2.3e-09	1.3e-08M*	i	18%	?
CCOc1ccccc1N1CCN(C(=O)c2c(C)noc2C)CC1	2e-09	i	i	-0.5%	nt
COC(=O)Sc1nc(N2CCOCC2)c2c(c1C#N)CC(C)(C)OC2	1.9e-08	i	i	nt	nt
Cc1ccc(S(=O)(=O)Nc2cc(C(=O)NCCN3CCCC3)ccc2N2CCCCC2)cc1	4.5e-09	i	i	-0.4%	12%
C=CCNC(=O)c1ccc2c(c1)nnn2C	1.2e-09	i	i	1.6%	-6%
COc1ccccc1N1CSC2=C(C#N)C(c3ccc(SC)cc3)CC(=O)N2C1 (stereo not drawn)	nt	nt	nt	-2.2%	-2%
COc1cc(CC(NC(C)=O)C(=O)NC2CCN(c3nc(C)cc(C)c3C#N)CC2)cc(OC)c1 (stereo not drawn)	3.1e-08	i	i	-2.1%	-4%
COc1ccc(OC)c(S(=O)(=O)N2CCC(C(=O)Nc3ccc(C)c(C)c3)CC2)c1	1e-08	i	i	-0.2%	16%
CC(C)N(c1ccccc1)c1ccc(NC(=O)C2CCCO2)cc1 (stereo not drawn)	4.8e-08	i	i	-0.5%	2%
Cc1cccc(CNc2ncnc3[nH]ncc23)c1	6.6e-09	i	i	0.8%[11.5 µM]	-6%[11.4 µM]

Compounds above with an aryl methoxy group:
SMILES	A647 autofl	A488 autofl	Resorufin fluor	AID923	TSHR ag
COc1cccc(NC(=O)CSc2nnc(-c3cccc(OC(C)C)c3)n2N)c1	1e-09	i	i	-0.2%	-8%
COc1ccccc1N1CSC2=C(C#N)C(c3ccc(SC)cc3)CC(=O)N2C1 (stereo not drawn)	nt	nt	nt	-2.2%	-2%
COc1cc(CC(NC(C)=O)C(=O)NC2CCN(c3nc(C)cc(C)c3C#N)CC2)cc(OC)c1 (stereo not drawn)	3.1e-08	i	i	-2.1%	-4%
COc1ccc(OC)c(S(=O)(=O)N2CCC(C(=O)Nc3ccc(C)c(C)c3)CC2)c1	1e-08	i	i	-0.2%	16%

The results go on:
SMILES	A647 autofl	A488 autofl	Resorufin fluor	AID923	TSHR ag
O=C(NCC1CCCO1)C1CCC(=O)N1Cc1ccccc1Cl (stereo not drawn)	1.3e-09	i	i	0.1%	1%
CC(=O)NCC(=O)OCC(=O)c1ccc(C)c(C)c1	nt	nt	nt	0.1%	1%
CCO/C=C1/C(=O)N(CC)c2ccccc21	3.4e-08	i	i	-1.6%	-8%
N#Cc1ccc(CSc2nc(-c3cccs3)c3c(c2C(=O)O)CCCC3)cc1	nt	nt	nt	0.1%	?
CC1CCc2nc(NC(=O)CSc3nc4ccccc4o3)sc2C1 (stereo not drawn)	1e-09	i	i	-2.2%	32%
CCCS(=O)(=O)NCCc1cc2cc(C)c(C)cc2[nH]c1=O	1e-09	i	i	1.0%	0%
Cc1noc(C)c1CSc1nnc2sc3ccccc3n12	7.6e-09	i	i	-1.7%	5%
Cc1nn2cc(-c3ccc(-c4ccccc4)cc3)nc2s1	1.1e-08	i	i	-1.7%	-5%
CCOC(=O)C1CCCN(C2CC(=O)N(c3cccc(C)c3)C2=O)C1 (stereo not drawn)	3.3e-09	i	i	-2.0%	nt
CCOc1ccccc1Nc1nnc(Cc2ccccc2Cl)c(=O)[nH]1	1.6e-08	i	i	-1.2%	16%
CC(=O)NCC(=O)N[C@H](CCC(=O)O)C(=O)O	nt	nt	nt	-1.2%	-1%
Cc1nc(NCc2ccccc2)c2nc(-c3ccccc3)n(CCCN3CCOCC3)c2n1	nt	nt	nt	-1.8%	?
C/C(=C\C(=O)c1ccc(C)o1)Nc1ccc(C(=O)O)cc1C	1.3e-09	i	i	-0.1%	-7%
Cc1ccc(S(=O)(=O)Cn2nnnc2CN(Cc2ccco2)CC2CCCO2)cc1 (stereo not drawn)	1e-09	i	i	0.6%	8%
COc1ccc(O[C@H]2C=C[C@@H](c3ccccc3)O[C@H]2COC(=O)CC/C(C)=N\O[C@@H](C)CN2CCCCc3nc(C)c(C)cc32)cc1	nt	nt	nt	-0.9%[11.5 µM]	17%[11.4 µM]
CN1C(=O)C2ON(c3ccccc3)C(c3cccs3)C2C1=O (stereo not drawn)	1e-09	i	i	-0.6%	8%
CCn1[nH]c(=O)c(=Nc2c(C)n(C)n(-c3ccccc3)c2=O)cc1-c1ccc(Cl)cc1	1e-09	i	i	-3.0%	2%[11.4 µM]
O=c1c2c3c(sc2ncn1/N=C/c1ccc(Br)o1)CCCC3	nt	nt	nt	7.8%	-13%
CCCOc1ccc(/C(O)=C2/C(=O)C(=O)N(CCCn3ccnc3)C2c2cccs2)cc1 (stereo not drawn)	3e-08	i	i	nt	nt
Cc1ccc(C(=O)CSC2=C(C#N)C(c3ccco3)C3=C(CCCC3=O)N2)cc1 (stereo not drawn)	1.1e-08	i	i	nt	nt
Cn1c(=O)n(C/C=C/c2ccccc2)c(=O)c2c1nc1n2CCCN1Cc1ccccc1	3.1e-08	i	i	0.2%	1%
O=C(CCc1nc(-c2ccccc2)no1)N1CCCC1	1e-09	i	i	0.5%	6%
Nn1c(SCc2nc3ccccn3c2Br)nnc1-c1cccnc1	4.1e-08	i	i	-1.4%	-2%
Cc1[nH]c2c(Cl)cccc2c(=O)c1CN1CCCC1	1.6e-08	i	i	0.2%	0%
COc1ccccc1N(C)S(=O)(=O)c1ccc(C(=O)NC2=NCCS2)cc1	3.6e-08	i	i	-2.1%	-15%
COc1ccc(NS(=O)(=O)c2cccs2)c(OC)c1	nt	nt	nt	-1.0%	13%
COc1ccc(S(=O)(=O)NCc2ccc(C(=O)N3CCN(c4ccccn4)CC3)cc2)cc1	1.1e-08	i	i	-0.5%	19%
CCS(=O)(=O)N1CCN(C(=O)c2ccc(-c3ccccc3)cc2)CC1	1e-09	i	i	0.9%	?
CN(C)C(=O)N1CCCC(C(=O)NCc2ccccc2)C1 (stereo not drawn)	2.2e-08	i	i	-1.9%	-1%
CN(c1ccccc1C(=O)NCc1ccccn1)S(C)(=O)=O	1e-09	i	i	0.7%	-2%
Cc1ccc2c(c1)-c1c(cnn1CC(=O)NC(C)CCc1ccco1)CO2 (stereo not drawn)	nt	nt	nt	1.2%	5%
CO/N=C(/C)CCC(=O)OC[C@@H]1O[C@H](c2ccccc2)C=C[C@@H]1Oc1ccc(OC)cc1	nt	nt	nt	-2.6%[11.5 µM]	?
CCOC(=O)C1=C(c2ccccc2)NC(SCC(=O)Nc2cccc(C)c2)=C(C#N)C1c1ccco1 (stereo not drawn)	1e-09	i	i	5.5%	7%
CC(Cc1c[nH]c2ccccc12)NC(=O)C1CCCNC1=O (stereo not drawn)	nt	nt	nt	0.1%	1%[11.4 µM]
Cc1cc(C)nc(SC2CCOC2=O)n1 (stereo not drawn)	2.3e-09	i	i	-1.1%	-1%
COc1ccc(CC(=O)Nc2cc(C)c3c(=O)oc4ccccc4c3n2)cc1	nt	nt	nt	-2.6%	?
O=C(O)CCN1C(=O)NC2(CCCC2)C1=O	1.4e-09	i	i	1.0%	7%
O=S(=O)(O)c1ccc2c(N=Nc3c(O)ccc4ccccc34)cccc2c1	4.1e-08	i	i	-0.3%[11.5 µM]	nt
CCN1CCN(Cc2cc(=O)oc3cc4c(cc23)CCC4)CC1	2.1e-09	i	i	0.3%	15%
Cc1nn(C)c(C)c1S(=O)(=O)N1CCC(C(=O)NC2CCCCCC2)CC1	nt	nt	nt	-0.8%	15%
COCCN(CCOC)c1ncc(Cl)c(C(=O)c2c(C)cc3ccccn23)n1	1.5e-08	i	i	-0.8%	?
CCN1CCN(c2cc(C)c3cc(NC(=O)c4cncc(Br)c4)ccc3n2)CC1	1e-09	i	i	-0.4%	2%
CCOc1cccc(-c2nnc3sc(COc4ccc(OC)cc4)nn23)c1	2.8e-08	i	i	0.4%	?
COCCNC(=O)CN(CC1CCCO1)C(=O)CCC(=O)Nc1ccccn1 (stereo not drawn)	1.2e-09	i	i	-0.8%	1%
COc1ccc(CCNC(=O)c2nnn(-c3ccc4c(c3)OCCO4)c2N)cc1OC	1e-09	i	i	-1.5%	1%
COc1ccc(CNC(=O)CSc2nnnn2-c2ccccc2)cc1	nt	nt	nt	-1.3%	19%
CCOC(=O)c1c(C#N)c(SCC(=O)Nc2ccc(OC)cc2)nc2c1CN(CC)CC2	6.9e-09	i	i	15%	6%
O=C(O)c1ccccc1NS(=O)(=O)c1cccc(C(F)(F)F)c1	nt	nt	nt	1.4%	26%
CCSc1nnc(NC(=O)CCNS(=O)(=O)c2cc(Br)cnc2N)s1	1e-09	i	i	-0.2%	-11%
COc1ccc2[nH]cc(CCNc3ccnc(-c4cccc(NS(C)(=O)=O)c4)n3)c2c1	7.4e-09	i	i	-3.3%	-13%
O=C1CCCC2=C1C(c1ccccc1)C1=C(CCCC1=O)O2	nt	nt	nt	0.8%	3%[11.4 µM]
COc1ccc(-n2c(=O)c3c4c(sc3n3c(C)nnc23)COC(C(C)C)C4)cc1 (stereo not drawn)	1e-09	i	i	1.4%	?
CCOC(=O)c1nnn(-c2nonc2N)c1CSc1ccccn1	1e-09	i	i	0.4%	11%
CCOCCN1CCN(c2c3c(nc4cc(-c5ccc(F)cc5)nn24)CCC3)CC1	8.7e-09	i	i	-1.1%	3%
CC(=O)N1CC=CC1(CC(C)C)C(=O)O (stereo not drawn)	nt	nt	nt	-3.6%	0%
COC(=O)Sc1nnc(-c2ccc(Br)cc2)o1	1e-09	i	i	0.4%	12%[11.4 µM]
O=C1CC(c2ccc3c(c2)OCO3)CN1 (stereo not drawn)	1.8e-08	i	i	-0.9%	9%
COC(=O)c1ccc2c(=O)n(CCN3CCOCC3)c(=S)[nH]c2c1	2.8e-08	i	i	2.0%	-7%
COc1ccc(-c2ccc(SCC(=O)N3CCCC3)nn2)cc1OC	2.7e-08	i	i	-0.4%	-3%
c1ccc2sc(SCc3ccc(-c4nnco4)cc3)nc2c1	3.1e-09	i	i	3.1%	?
(further entries)
SMILES	A647 autofl	A488 autofl	Resorufin fluor	AID923	TSHR ag
O=C(Nc1ccc2c(c1)OCO2)C(c1ccc(Cl)cc1)N1CCC2(CC1)OCCO2 (stereo not drawn)	2.6e-08	i	i	0.9%	0%
O=C1NC2(CCCCC2)Cc2ccccc21	nt	nt	nt	1.1%	6%
O=C(CCN1c2ccccc2Sc2ccccc21)OCC(=O)N1CCN(C(=O)c2ccco2)CC1	1.6e-09	i	i	-1.8%	-1%
CCCN1Cc2cccc(C(=O)NCCCOC(C)C)c2C1=O	1.2e-08	i	i	-1.3%	19%
